# Compound activity from PubChem.
# Mtb hypoxia inh – inhibitors of hypoxia-regulated fluorescent reporter in Mycobacterium tuberculosis | M. tuberculosis hypoxia-regulated fluorescent reporter, fluorescence | fluorescence inhibition, % (test concentration not listed) | hit rate 0.1% among 300,000 | AID 1159583;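 active = 35 to 45% if threefold the growth effect, above 45% if 1.5-fold the growth effect; inactive = the rest, general growth blockers included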;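 also: wells of about 50 µL received 100 nL stock; 0% = vehicle wells and 100% = reference inhibitor wells; whole bacteria with a GFP reporter of the hypoxia response; strong numbers were not always called active; many hits fall short of the cut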
# Sa ugtP lethal – kills S. aureus RN4220 lacking UgtP; growth inhibition, % (test concentration not listed); hit rate 0.54% among 330,000; S. aureus RN4220 ugtP deletion, OD600 growth, 16 h; some inactives read as strong as hits;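 active = z-score under -3 and OD600 up to 0.15 on both plates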;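 also: plate controls were untreated wells for no effect and antibiotic for full effect; wells of about 80 µL received 100 nL stock; the first replicate is given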
# PrP UTR inh – inhibition of PrP 5' UTR reporter expression. cell-based PrP 5' UTR mRNA reporter, plate reader. inhibition, % (no concentration beside the values). hit rate 0.35% among 340,000. AID 488862;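 active = every replicate at 50% or more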;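 also: 0 = median of the neutral control wells; tested in H4 reporter cells; numbers are from one replicate; inactives centre near -14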
# Sa RN4220 lethal – kills Staphylococcus aureus RN4220; inhibition, % (test concentration not listed); S. aureus RN4220 growth, OD600, 16 h; hit rate 0.33% among 330,000;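 active = z-score of -3 or lower and OD600 up to 0.18 on both plates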;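 also: plate controls were untreated cells for no effect and reference antibiotic for full effect; stock transfer was 100 nL into about 80 µL; one replicate is shown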
# Autofluor counter – compound fluorescence in toxin protease inhibitor counterscreen; compound autofluorescence counterscreen, microsphere flow cytometry; stronger effect = higher value; fluorescence intensity (test concentration not listed); hit rate 3.1% among 360,000; AID 624483;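 active = at least 3 SD above the mean of all compounds, about 16000 in these data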;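 also: 100 nL of 1 mM stock went into each well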
# BJeLR lethal – kills HRASV12-expressing BJeLR cells. BJeLR (HRASV12) viability, CellTiter-Glo ATP luminescence, 48 h; reference of the scale not given here. inhibition, % (test concentration not listed). hit rate 0.17% among 300,000. AID 1554;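 active = replicate mean above 50%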;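 also: 50 nL library stock added to about 25 µL; numbers are from one replicate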
# Mtb hypoxia inh growth – further read-out of Mtb hypoxia inh, marked with its call; growth inhibition, %; measured here: M. tuberculosis growth (absorbance);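 0% = vehicle and 100% = reference antibiotic; read after six days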
# The depositor's hits bear a star; . = not tested or not shown. This is a random part of the collection (roughly 4.1% active in at least one column).
SMILES,PrP UTR inh,Autofluor counter,BJeLR lethal,Sa ugtP lethal,Sa RN4220 lethal,Mtb hypoxia inh growth,Mtb hypoxia inh
Cc1ccc(Cl)cc1N1CCN(C(=O)c2ccc(CN3CCOCC3)cc2)CC1,-11,13032,2,3,-0.2,6,10
CCCNC(=O)c1ccccc1N1CCN(CCCCN2C(=O)C3CCCCN3C2=O)CC1 (stereo unspecified),-14,.,0,7,1.8,1,8
CCOC(=O)N1CCN(Cc2nc3cc(NC(=O)CC(C)C)ccc3n2CC)CC1,-18,3975,2,7,3.3,-3,4
O=C(Cc1ccc(Cl)cc1)c1c[nH]c(C(=O)NCCCN2CCOCC2)c1,-9,4118,3,13,6.0,5,17
CC(C)c1ccc(CN(C)CC(O)c2ccccc2)cc1 (stereo unspecified),10,4326,5,-4,1.3,1,-6
OC[C@H]1O[C@@H](O[C@@H]2[C@@H](CO)O[C@@](O)(CO)[C@H]2O)[C@H](O)[C@@H](O)[C@H]1O,-28,5120,-2,.,.,.,.
COc1ccc(S(=O)(=O)NCCCn2ccnc2)cc1Cl,-9,4441,1,1,1.4,5,-2
O=C(Nn1c(-c2ccc(F)cc2)nc2ccccc2c1=O)c1cccnc1,-30,3958,5,-3,9.3,2,-1
COc1ccc(C(C)NC(=O)C2CCCO2)cc1OC (stereo unspecified),-7,15474,-3,3,0.5,4,12
CCn1cc(/C=C(\NC(=O)c2ccc(OC)c(OC)c2)C(=O)NCCCO)c2ccccc21,10,4181,-7,2,-2.6,1,3
CCS(=O)(=O)Nc1cc2c3c(c1)CCC(=O)N3CCC2,-9,4685,-18,8,5.8,2,7
COc1ccccc1N(Cc1ccccc1)S(=O)(=O)c1cccc(C(=O)Nc2ccccn2)c1,-25,4851,6,-3,4.9,3,-2
COc1cc(C=NNC(=O)COc2ccc(-n3cnnn3)cc2)ccc1OCC(N)=O,.,.,.,2,3.8,10,16
COc1cc(C(=O)NCc2ccncc2)cc(OC)c1OC,-13,4216,-3,1,0.5,14,0
CC1CCN(C(=O)c2cccc(S(=O)(=O)N3CCN(c4ccccc4)CC3)c2)CC1,-14,4273,1,-1,-3.9,-8,-4
CCc1ccc(NC(=O)COC(=O)c2cccs2)cc1,-37,3610,-1,17,4.5,9,10
O=C(OCc1cnc(Cl)s1)c1ccccc1Cl,-26,5626,-5,-5,3.4,.,.
Cc1ccc(NC(=O)CN2CCOCC2)cc1Cl,-17,2889,6,1,0.8,-10,7
O=C(COC(=O)/C=C/c1cccc(C(F)(F)F)c1)NCc1ccco1,-14,.,-5,-4,-4.0,0,-10
CC(C)Sc1nc2c([nH]c3ccccc32)c(=O)n1C,-3,2000,3,-4,1.5,-6,-1
CC(C)(CC(=O)O)CC(=O)Nc1ccc(Cl)c(Cl)c1,-19,5745,-2,-3,5.0,-6,-6
COc1ccccc1NC(=O)N1CCCC1C(=O)NCc1ccccc1 (stereo unspecified),-19,8791,-4,-4,0.7,4,9
CN(C)c1ccc(C(=O)/C=C/c2ccccc2)cc1,-120,1998,-9,5,2.8,10,4
COC(=O)c1ccc(N2CCN(C)CC2)c(NC(=O)c2cc3ccccc3o2)c1,-9,4263,4,-4,-0.7,12,9
COc1ccc(Cn2cccc(NC(=O)Nc3cccc(OC)c3)c2=O)cc1,12,3382,12,-9,-7.0,3,-14
O=C(CN(c1ccccc1F)S(=O)(=O)c1ccccc1)Nc1ccccc1C(=O)N1CCOCC1,-22,2538,-3,7,5.7,9,10
COc1ccc(OC)c(CN2CCC(C(=O)N(C)CCc3ccc(OC)c(OC)c3)CC2)c1,-42,4290,2,2,5.9,0,-2
COc1cc(/C=C/[N+](=O)[O-])ccc1O,-2,2863,72*,.,.,.,.
COc1cccc(C2CC(c3cccs3)=NN2S(C)(=O)=O)c1OC (stereo unspecified),-6,4574,-3,-3,7.0,8,1
COC(=O)/C=C/C(=O)Nc1cccnc1,-22,2561,0,.,.,.,.
CCC(=O)Nc1ccc(-c2nnc(-c3ccccc3)o2)cc1,-68,4956,2,-4,2.5,.,.
Cc1cc(C)c(NC(=O)CSc2nc3ccc(NC(=O)CSc4nnnn4Cc4ccccc4)cc3s2)c(C)c1,-4,9329,-2,8,2.4,1,1
N/C(=N\OC(=O)COc1ccc2ccccc2c1)c1cccnc1,-15,2098,-12,-5,2.8,4,5
O=C(Nc1ccc(Br)cc1)c1ccc2ncsc2c1,-55,5283,-3,-4,8.5,1,14
O=C(NCc1ccccc1)C1CCCN(C(=O)Nc2ccccc2)C1 (stereo unspecified),-5,20689*,.,8,6.2,14,6
COc1cccc(C(=O)/C=C/Nc2ccc(S(=O)(=O)Nc3onc(C)c3C)cc2)c1,-36,2142,1,8,3.3,15,13
CCOc1ccc(OCC)c(NC(=O)CC2Oc3ccccc3NC2=O)c1 (stereo unspecified),12,5660,-2,2,4.6,.,.
CCNC(=O)c1c(NC(=O)c2cc(-c3cc(C)cc(C)c3O)n[nH]2)sc2c1CCCC2,-6,3473,.,-6,-3.4,-3,-6
CCc1nnc(NC(=O)c2nn(-c3ccccc3)nc2C)s1,-10,5481,-7,0,0.8,0,13
Cc1cc(C)n(-c2nnc(C)n2N=Cc2ccccc2F)n1,.,.,.,-1,0.6,2,-2
O=C(O)C1CCCN(S(=O)(=O)c2ccc(Br)cc2)C1 (stereo unspecified),-17,11322,2,-6,1.3,8,2
O=c1c2oc3ccccc3c2ncn1Cc1cccc(Cl)c1,-5,3435,10,-1,-3.1,-4,-2
COc1ccc(CC(=O)OCC(=O)N2CCCc3ccccc32)cc1,-23,5327,6,0,0.0,3,-5
CC1CCCCC1Nc1nc2ccc(Cl)cc2n2cnnc12 (stereo unspecified),1,3754,11,-13,1.4,-2,1
O=C(CN1C(=O)COc2ccccc21)NCCCN1CCOCC1,-9,4469,2,8,1.2,3,6

# Next part, starting with the last two of the part before.
SMILES,PrP UTR inh,Autofluor counter,BJeLR lethal,Sa ugtP lethal,Sa RN4220 lethal,Mtb hypoxia inh growth,Mtb hypoxia inh
CC1CCCCC1Nc1nc2ccc(Cl)cc2n2cnnc12 (stereo unspecified),1,3754,11,-13,1.4,-2,1
O=C(CN1C(=O)COc2ccccc21)NCCCN1CCOCC1,-9,4469,2,8,1.2,3,6
C[C@]12CCC3C(CC[C@H]4C[C@@H](O)CC[C@]34C)C1C/C(=N/O)[C@@H]2O (stereo partly specified),2,3063,.,2,2.1,-1,0
COc1ccc(NC(=O)Cn2c(=O)n(-c3ccccc3)c(=O)c3sccc32)c(OC)c1,-19,4757,-5,13,0.8,-10,7
CCCCCOC(=O)Cn1c(=O)c2c(nc(N3CCOCC3)n2C)n(C)c1=O,-13,5775,-5,3,5.1,10,0
CCOC(=O)c1c(C)n(C)c2cc(OCCN(CC)CC)ccc12,1,7099,-4,15,5.5,1,12
O=C(Cc1ccc(Cl)cc1Cl)Nc1ccncc1,-16,5381,8,-6,-2.7,-6,-7
OC(COc1c(Br)cc(Br)cc1Br)CN1CCOCC1 (stereo unspecified),-24,2529,3,8,-4.9,.,.
COc1cc(OC)c(NS(=O)(=O)c2ccc(Cl)c(C(=O)OC(C)C(=O)N3CCCC3)c2)cc1Cl (stereo unspecified),-14,1994,12,4,3.0,0,-1
CCN(CC)S(=O)(=O)c1ccc(N=Cc2c(C)c(C#N)c(=O)n(C)c2O)cc1,-5,2057,13,3,2.9,4,3
CCOc1ccc(N(CC(=O)O)S(=O)(=O)c2ccc(OC)c(OC)c2)cc1,-27,3295,-9,2,1.1,7,10
O=c1n(Cc2ccccc2Cl)c2sc3c(c2c2ncnn12)CCCC3,13,4939,.,-1,12,.,.
O=C(C1CC(=O)N(C2CCCC2)C1)N1CCC2(CC1)OCCO2 (stereo unspecified),-15,21310*,-1,4,5.9,7,14
COc1ccc(C(=O)n2nnc3ccccc32)cc1Br,-3,4410,2,11,3.2,3,17
Cc1[nH]c(C(=O)O)c(C)c1C(=O)OC(C)C,-6,3156,3,8,6.1,.,.
Cn1nc(CSc2ccccc2)c(C=O)c1Cl,-40,4432,-7,8,7.7,4,12
COc1cccc(C(=O)CN2C(=O)C(C)(C)Oc3ccc(C(=O)N4CCOCC4)cc32)c1,-21,5633,-3,16,0.1,8,1
COc1ccc(N(CC(=O)Nc2ccc(S(=O)(=O)N3CCCCC3)cc2)S(C)(=O)=O)cc1OC,-19,19464*,-3,-3,1.8,4,6
CCCCCCCCC(=O)N/N=C(\C)c1ccc(O)cc1O,-7,2477,-13,.,.,.,.
Cc1cc(NC(=S)NC(=O)CC(C)C)ccc1Br,-37,25030*,-5,70,-3.5,19,22
O=S(=O)(c1ccc(Cl)cc1)N1CCCN(c2nc3ccc(Cl)cc3s2)CC1,-36,3647,-5,-4,5.5,15,12
Cc1c(Cl)cccc1NC(=S)N1CC2CC(C1)c1cccc(=O)n1C2 (stereo unspecified),-20,2123,-3,-1,5.2,6,5
CC1CCN(C(=O)COC(=O)Cn2cnc3c2c(=O)n(C)c(=O)n3C)CC1,0,6079,-8,.,.,.,.
O=C(Cc1ccccc1)NCC(=O)N1CCC2(CC1)NCCc1[nH]cnc12,-9,5207,-7,0,-2.6,0,8
O=C(CN1CCCCC1)Nc1ccc(N2CCCCCC2)cc1,-34,3861,4,-4,3.4,7,15
CCCN(CCC)CC(O)CN(c1ccccc1)S(=O)(=O)c1ccc(C)cc1 (stereo unspecified),-44,.,3,9,2.9,6,9
C=CCn1c(Cc2ccc(OC(C)C)c(Cl)c2)nnc1SCC(N)=O,-8,2240,-4,10,6.2,.,.
COCCCNC(=O)c1cc2cc3cc(OC)ccc3nc2o1,-1,4501,-14,9,1.3,11,2
Cc1cc2c(C)nc(N/N=C/c3ccc([N+](=O)[O-])cc3)nc2o1,-5,2054,7,.,.,.,.
C=C(C(=O)Nc1ccccc1)c1ccc(C)cc1,-16,2923,-3,6,6.2,31,25
O=S(=O)(c1ccccc1)N1CCC(Oc2ccc(-n3cnnn3)cc2)CC1,-23,.,8,-4,2.0,-2,-2
Cc1ccc(S(=O)(=O)Nc2nnc(C(C)(C)C)s2)cc1,-13,3390,-3,9,3.8,-11,-5
Cc1ccccc1OCCCC(=O)NCc1ccco1,.,10387,0,-1,0.3,5,-8
COc1ccc(C(=O)Nc2ccc(-c3n[nH]c(=S)o3)cc2)cc1,-8,3278,7,3,6.3,13,24
O=C(Cc1cccc(C(F)(F)F)c1)Nc1ccccc1N1CCCC1,-4,4127,4,1,8.7,-7,-3
CCC(C)N(C(=O)CSc1nnc(-c2ccco2)n1C)C1CCS(=O)(=O)C1 (stereo unspecified),-14,7023,1,3,2.8,-4,8
Cn1c(=O)c2c(nc(Cl)n2CC(=O)N2CCCCC2)n(C)c1=O,-22,3115,2,-1,-0.5,7,7
O=C(CCCN1C(=O)/C(=C\c2cccs2)SC1=S)NNC(=O)c1ccncc1,-11,3366,-11,1,4.9,6,1
O=C(CCN1C(=O)C2C3C=CC(C3)C2C1=O)NCCc1ccccc1Cl (stereo unspecified),-23,3675,6,3,-1.6,.,.
NC(=O)C1CC2(CC(c3cccc(NC(=O)C4CCC(=O)N4)c3)=NO2)CN1C(=O)c1ccccc1C(=O)c1ccccc1 (stereo unspecified),.,.,.,-2,4.8,7,3
O=[N+]([O-])c1c(NCc2ccco2)ncnc1NCc1ccco1,-22,4023,.,11,2.5,7,14
COc1ccc(/C=C(\NC(=O)c2ccc(OC)cc2)C(=O)Nc2cccc(C(=O)O)c2)cc1,1,3877,4,3,2.1,6,4
COC(=O)c1ccc(NC(=O)c2ccccc2)o1,-21,2342,4,2,0.4,.,.
CCCCOc1ccc([N+](=O)[O-])cc1C(=O)O,8,3416,-12,-6,5.7,6,9
